FGF22 binding = binders of recombinant human FGF22 by thermal shift | SYPRO orange fluorescence; percent of sucrose octasulfate shift, DMSO zero | calls only at 9.99 µM | actives 1.5% (n = 340,000) | AID 651658;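 active = melting point raised past a set limit in the mean and every replicate; inconclusive = no clear call; three in four hits are not shown here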
Target sequence (Q9HCT0 whole entry, looked up): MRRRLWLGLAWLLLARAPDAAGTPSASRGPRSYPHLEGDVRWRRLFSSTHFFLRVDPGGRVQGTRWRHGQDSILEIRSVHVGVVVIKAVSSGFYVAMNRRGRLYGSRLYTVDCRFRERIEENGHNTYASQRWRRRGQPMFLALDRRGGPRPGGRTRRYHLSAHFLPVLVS
ALR H2O2 inh = inhibitors of human sulfhydryl oxidase ALR. P55789. purified ALR, DTT oxidation, H2O2 HRP-luminol luminescence. inhibition, % (concentration not given with the values). actives 3.8% (n = 290,000);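 active = mean and each replicate at 75% or more; inconclusive = only one of the two met; inactive = neither met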;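 note: stock transfer was 7.5 nL into about 7.5 µL; 0% = neutral wells and 100% = wells with inactivated enzyme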
Target sequence (P55789 whole entry, looked up): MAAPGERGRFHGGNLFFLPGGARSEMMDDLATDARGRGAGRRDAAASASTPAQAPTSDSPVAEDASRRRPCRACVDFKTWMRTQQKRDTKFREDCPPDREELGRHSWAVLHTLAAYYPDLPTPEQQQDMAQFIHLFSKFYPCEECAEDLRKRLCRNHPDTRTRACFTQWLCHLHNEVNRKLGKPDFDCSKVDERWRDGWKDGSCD
T cruzi inh = blocks replication of Trypanosoma cruzi; T. cruzi beta-gal in NIH3T3, luminescence, 90 h; actives 1.4% (n = 300,000); inhibition, % (test concentration not listed); AID 1885;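 active = mean inhibition across valid replicates above about 55%, limit read from the data; inconclusive = mean below that limit but half or more replicates reach it; inactive = mean below it, under half of replicates reach it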;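 note: signal also drops with host cell toxicity which is not excluded here; 0% = plate median of DMSO wells and 100% = zero luminescence signal; higher percent means less beta-gal luminescence so fewer parasites; stock transfer was 50 nL into about 50 µL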
Ecoli rRNA inh = selective bacterial rRNA inhibition in E. coli. actives 1.6% (n = 350,000). GFP signal change (wild-type ribosome), % (no concentration beside the values). E. coli WT GFP vs humanized-ribosome RFP mutants, fluorescence, 24 h; active compounds read low; DMSO median 0, no signal -100;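 active = significant combined selectivity score with lowered wild-type GFP, culture density cut under 30%, mutant RFP and density less affected; inactive = any of these conditions unmet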; note: one replicate is shown; some compounds called inactive have numbers as strong as hits
AF4-AF9 inh = blocks AF4 peptide binding to human AF9. AlphaScreen, biotin-AF4 peptide binding to FLAG-AF9. actives 0.47% (n = 350,000). inhibition, % at 10 µM. P42568;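 active = every replicate reaching a set inhibition limit, whatever the replicate mean, cut at about 25% in these data; inconclusive = mean inhibition reaches that limit but some replicates miss it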;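 note: 0% = plate neutral control median and 100% = total signal loss; the record names both 10 and 1 µM as test concentration; the first replicate is given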
Target sequence (P42568 whole entry, looked up): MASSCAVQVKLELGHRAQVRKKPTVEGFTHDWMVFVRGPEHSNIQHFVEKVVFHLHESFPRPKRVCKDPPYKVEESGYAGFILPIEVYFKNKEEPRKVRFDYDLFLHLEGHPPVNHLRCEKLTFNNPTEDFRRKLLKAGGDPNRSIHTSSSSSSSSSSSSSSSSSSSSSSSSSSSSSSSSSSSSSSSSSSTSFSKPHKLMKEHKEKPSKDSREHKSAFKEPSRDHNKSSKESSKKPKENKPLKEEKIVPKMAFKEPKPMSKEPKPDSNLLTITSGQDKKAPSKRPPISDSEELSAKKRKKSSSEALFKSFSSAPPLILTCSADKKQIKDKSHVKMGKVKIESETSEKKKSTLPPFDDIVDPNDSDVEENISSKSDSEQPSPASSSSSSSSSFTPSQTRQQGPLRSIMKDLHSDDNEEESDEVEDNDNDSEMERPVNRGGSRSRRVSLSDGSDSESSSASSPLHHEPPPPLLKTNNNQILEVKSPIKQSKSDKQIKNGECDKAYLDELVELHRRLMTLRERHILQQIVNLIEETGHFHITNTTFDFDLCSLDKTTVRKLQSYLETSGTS
RanGTP-Impb inh = disruptors of Ran-importin-beta complex formation – biochemical, FRET, CFP-Ran, YFP-importin-beta, homogeneous, primary screen; actives 1.1% (n = 300,000); inhibition, % (concentration not given with the values); cell-free CFP-Ran/YFP-importin-beta FRET ratio;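 active = most replicates above 15%; inconclusive = exactly half above 15%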;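 note: 0% = DMSO wells and 100% = Ran loaded with GDP instead of GTP; wells of about 40 µL received 100 nL stock; the first replicate is given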
Calb FLC = C. albicans growth modulation with fluconazole. C. albicans CaCi-2 (fluconazole-resistant clinical isolate) + fluconazole, Alamar Blue growth, 48 h. growth inhibition, % (test concentration not listed). actives 0.57% (n = 300,000). AID 1979;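 active = most replicates above 75%; inconclusive = exactly half above 75%; inactive = most below 75%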;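 note: all wells also contain fluconazole at 8 µg/ml as a sub-toxic cotreatment; 0% = median of DMSO wells and 100% = median of geldanamycin control wells; wells of about 8 µL received 7.5 nL stock; the first replicate is given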
Beta cell apopt = beta cell apoptosis inhibition; protection from apoptosis, % (concentration not given with the values); INS-1E cytokine-induced death, ATP luminescence, 48 h; percent of positive-control rescue, neutral wells zero; actives 0.8% (n = 300,000);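 active = all replicates at 75% or more, or half of them and the mean; inconclusive = half reach 75% but not the mean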;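 note: 0% = cytokine-treated negative control wells and 100% = positive control rescue; higher means more ATP so stronger rescue from cytokine killing; wells of about 40 µL received 100 nL stock; the first replicate is given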
Ecoli rRNA inh OD600 = further read-out of Ecoli rRNA inh, marked with its call; OD600 change, %; measured here: OD600 growth;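 optical density of the mix in the first replicate; 0 = DMSO median and -100 = no signal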
Ecoli rRNA inh RFP = recorded beside Ecoli rRNA inh, whose call it bears; RFP signal change, %; measured here: RFP humanized mutant strains;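 first replicate; 0 = DMSO median and -100 = no signal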
Starred values were filed as active, the others as inactive; i = inactive; ? = inconclusive; / = not tested or not shown.

SMILES	FGF22 binding	ALR H2O2 inh	T cruzi inh	Ecoli rRNA inh	Ecoli rRNA inh OD600	Ecoli rRNA inh RFP	AF4-AF9 inh	RanGTP-Impb inh	Calb FLC	Beta cell apopt
O=CN(Cc1ccco1)C1(C(=O)NC2CCCCC2)CCCCC1	/	-7	-11	/	/	/	/	-2.8	-23	/
O=c1[nH]c(-[n+]2ccc3ccccc3c2)c(/C=N/N=C(\[O-])c2ccccc2)s1	i	62	4	3	3	-0.3	-7.8	25*	4	-8
COc1ccc(/C=N/OCC(=O)Nn2c(C)nc3ccccc3c2=O)cc1	i	1	-12	2	5	-5.4	3.1	-1.2	-3	0
CC(=O)NC1(C(F)(F)F)NC(=O)N(CC(C)C)C1=O (centres undefined)	/	-1	-8	/	/	/	/	1.2	1	-2
COc1ccc(NC(=S)N2CCN(S(=O)(=O)c3ccc(OC)cc3)CC2)cc1	i	-18	/	0	0	1.2	0.7	/	-7	-6
O=C(/C=C/c1c(Cl)cccc1Cl)n1cccn1	/	/	-27	/	/	/	/	-2.3	2	-7
CC1CCN(c2cc(N3CCC(C)CC3)c([N+](=O)[O-])cc2/C=C(\C#N)c2nn(-c3ccccc3)c(N)c2C#N)CC1	/	-6	2	/	/	/	/	-1.5	-4	-2
Cc1ccc(-c2csc3nc[nH]c(=O)c23)c(C)c1	i	-1	-31	-14	-13	-2.8	0.0	2.7	-6	-10
Nc1c(C(=O)N/N=C/c2cccnc2)oc2nc(-c3ccco3)cc(-c3ccco3)c12	i	-26	-2	8	9	9.0	1.8	-1.9	9	-3
CNc1ccc(S(=O)(=O)NC)cc1[N+](=O)[O-]	i	2	-4	7	8	6.9	-2.0	-2.7	1	2
CC(C)OC(=O)c1c(NC(=O)CCn2nnc3ccccc32)sc2c1CCCC2	/	0	32	/	/	/	/	4.6	11	5
CCn1c2ccccc2c2cc(NC(=O)c3ccc(C)c([N+](=O)[O-])c3)ccc21	/	/	45	/	/	/	/	2.8	-1	36
COc1cnc(-c2ccccn2)nc1Oc1ccc(Cl)c2ccccc12	/	-31	38	/	/	/	/	-1.1	-1	97*
CC1=CC(C)(C)[N+](C)(C)c2ccccc21	i	-2	-1	18	24	1.9	-2.7	-0.7	-4	-6
COC(=O)c1ccc(CN2CCN(CCC(C)C)C(CCO)C2)cc1 (centres undefined)	i	-1	20	6	7	0.4	0.7	-1.0	-30	0
O=C(CS(=O)(=O)c1ccc(Br)cc1)N1CCOCC1	i	-3	-9	14	11	-1.4	1.2	-0.4	-10	-11
COc1ccc(C(=O)NCC(=O)OCC(=O)NC(=O)NC2CCCCC2)cc1OC	/	-3	-5	/	/	/	/	1.9	-2	-1
CCN(CC)c1ccc(C=C2C(=O)OC3(CCCCC3)OC2=O)cc1	i	?	-10	9	7	72	16	?	1	-5
O=C(CNC(=O)c1cccc(-n2cnnn2)c1)Nc1ccc(F)c(F)c1	i	-1	/	6	17	-2.0	1.5	/	/	0
CC1CCN(S(=O)(=O)c2cc(C(=O)NC3(C)CCS(=O)(=O)C3)ccc2Br)CC1 (centres undefined)	i	-5	/	2	-3	0.8	0.6	/	/	-5
O=c1[nH]c2ccc(NC(=S)NC3CCCCC3)cc2[nH]1	i	21	-12	12	8	-5.2	1.4	1.5	-1	-3
Cc1nc2ccccc2c2oc(C(=O)N3CCN(C(=O)c4ccco4)CC3)cc12	/	16	-10	-8	-7	-1.1	1.1	-0.1	-2	3
O=C(O)c1cc(-c2ccccc2)n[nH]1	i	0	-7	-1	-11	-1.3	0.2	0.8	-9	-3
COc1nccc(NCc2ccccc2)c1C#N	i	-6	-12	-2	1	0.6	/	2.5	22	-12
O=C(C1CCN(CCCc2ccccc2)CC1)N1CCCCC1	/	/	12	/	/	/	/	3.9	8	-12
COc1ncnc2c1oc1ccccc12	i	1	-7	20	26	7.6	-5.3	3.5	?	3
COCCN1C(=O)c2ccc(C(=O)NCc3cccnc3)cc2C1=O	/	-14	-6	/	/	/	/	2.2	-6	-3
COC(=O)c1ccn(-c2nc(-c3ccco3)cc(C(F)(F)F)n2)n1	/	/	6	/	/	/	/	-0.1	1	0
CCOc1ccc(-c2cc(C(=O)N3CCCC3)c3ccccc3n2)cc1	/	0	-4	/	/	/	/	-0.8	-3	-4
Cc1cc(N2CCN(C(=O)Nc3ccc(F)cc3F)CC2)c2ccccc2n1	/	-1	6	/	/	/	/	?	2	-2
CCOC(=O)c1ccc(NCCc2ccc(OC)c(OC)c2)c(N)c1	i	31	4	-20	-18	-2.6	5.3	7.5	-12	-8
CC(C)C(C(=O)Nc1ccc(N2CCOCC2)cc1)N1C(=O)c2ccccc2C1=O (centres undefined)	/	16	-4	/	/	/	/	-2.9	-5	-2
COc1cccc(/C=C2\SC(=S)N(CCC(=O)NC3C=CS(=O)(=O)C3)C2=O)c1 (centres undefined)	i	0	-15	16	11	1.4	-13	-1.1	/	-41
NC(=O)C1CC(=O)N(c2ccc(OCc3c(F)cccc3Cl)cc2)C1 (centres undefined)	/	-1	-10	-1	-9	-0.6	-3.2	4.7	40	0
COc1ccc(OC)c(NC(=O)CSc2nnnn2-c2ccc3c(c2)OCO3)c1	i	-7	26	5	-9	2.2	-8.8	-0.7	-3	-10
CN(CCC1CCOCC1)Cc1nc(Cc2ccccc2F)no1	i	/	2	5	-13	-8.3	0.5	-0.9	1	-5

3 compounds already listed, sorted by the value under RanGTP-Impb inh, falling:
| Structure | RanGTP-Impb inh |
| --- | --- |
| COC(=O)c1ccn(-c2nc(-c3ccco3)cc(C(F)(F)F)n2)n1 | -0.1 |
| COc1ccc(OC)c(NC(=O)CSc2nnnn2-c2ccc3c(c2)OCO3)c1 | -0.7 |
| CC(C)C(C(=O)Nc1ccc(N2CCOCC2)cc1)N1C(=O)c2ccccc2C1=O (centres undefined) | -2.9 |

The list continues:
SMILES	FGF22 binding	ALR H2O2 inh	T cruzi inh	Ecoli rRNA inh	Ecoli rRNA inh OD600	Ecoli rRNA inh RFP	AF4-AF9 inh	RanGTP-Impb inh	Calb FLC	Beta cell apopt
C/C(CC(=O)Nc1ccc(Cl)c(C(F)(F)F)c1)=N\NC(=O)c1cnccn1	i	8	-12	-2	-7	0.0	-10	1.9	-4	-4
CC(=O)NCCC(=O)Nc1cc(S(=O)(=O)N2CCOCC2)ccc1Oc1ccccc1	i	-1	3	1	7	-2.2	-0.9	-1.6	-3	1
Cc1ccc(S(=O)(=O)Nc2ccc(O)c3ccccc23)c(C)c1	i	95*	1	6	-2	11	8.3	2.8	-16	96*
CC(C)(C)n1nnnc1C(c1ccncc1)N1CCN(c2ccc(O)cc2)CC1 (centres undefined)	/	98*	-20	/	/	/	/	-0.2	-5	3
CC(=O)c1cc(F)ccc1OCC(=O)Nc1ccc2c(c1)OCO2	i	-2	/	-1	25	-2.7	-3.8	/	/	0
Cc1ccccc1OCC(=O)Nc1ccccc1N1CCOCC1	/	1	6	/	/	/	/	4.5	-3	2
COc1cc(OC)cc(C(=O)N[C@H](C(=O)NCCc2c[nH]c3ccccc23)C(C)C)c1	i	/	-1	-12	-15	1.1	4.5	1.5	19	3
CCOc1ccc(CN2CCNC(=O)C2CC(=O)NCCc2nc(C)c3c(n2)CCC3)cc1 (centres undefined)	i	/	-4	2	10	0.6	1.5	4.9	13	/
COC(=O)c1cc(NC(=O)Cn2nc(C)n3cccc3c2=O)cc(C(=O)OC)c1	i	-3	-20	7	8	1.6	2.0	-0.9	7	/
CCOC(=O)C1(CCOc2ccccc2)CCN(CC(O)CO)CC1 (centres undefined)	i	/	-18	4	-1	-0.7	-4.6	0.2	-5	-6
Cn1ccc(O)c(C#N)c1=O	i	-18	1	4	5	2.3	-0.7	0.0	-3	-6
CNC[C@H](CC1CCCCC1)NC[C@H](CO)NCCc1cccc(C(F)(F)F)c1	i	-7	7	-53	-79	-27	12	-3.1	-36	36

Compounds from the list above that have an NH in an aromatic ring (five):
SMILES	FGF22 binding	ALR H2O2 inh	T cruzi inh	Ecoli rRNA inh	Ecoli rRNA inh OD600	Ecoli rRNA inh RFP	AF4-AF9 inh	RanGTP-Impb inh	Calb FLC	Beta cell apopt
O=c1[nH]c(-[n+]2ccc3ccccc3c2)c(/C=N/N=C(\[O-])c2ccccc2)s1	i	62	4	3	3	-0.3	-7.8	25*	4	-8
Cc1ccc(-c2csc3nc[nH]c(=O)c23)c(C)c1	i	-1	-31	-14	-13	-2.8	0.0	2.7	-6	-10
O=c1[nH]c2ccc(NC(=S)NC3CCCCC3)cc2[nH]1	i	21	-12	12	8	-5.2	1.4	1.5	-1	-3
O=C(O)c1cc(-c2ccccc2)n[nH]1	i	0	-7	-1	-11	-1.3	0.2	0.8	-9	-3
COc1cc(OC)cc(C(=O)N[C@H](C(=O)NCCc2c[nH]c3ccccc23)C(C)C)c1	i	/	-1	-12	-15	1.1	4.5	1.5	19	3

(next part)
SMILES	FGF22 binding	ALR H2O2 inh	T cruzi inh	Ecoli rRNA inh	Ecoli rRNA inh OD600	Ecoli rRNA inh RFP	AF4-AF9 inh	RanGTP-Impb inh	Calb FLC	Beta cell apopt
CC(=O)OC(COC1C[C@@H]2CC[C@@]1(C)C2(C)C)C[N+]1(C)CCCCC1 (some centres undefined)	i	-5	-4	-30	-13	14	1.2	1.9	-33	6
Cc1ccc2cc(C(c3nnnn3CC3CCCO3)N3CCc4ccccc4C3)c(=O)[nH]c2c1 (centres undefined)	/	-13	-13	/	/	/	/	-1.4	-8	-8
COC(=O)c1c(NC(=O)Cc2ccccc2)sc2c1CCN(C(C)C)C2	i	-5	-4	1	4	5.8	-19	0.7	-4	0
CN(C)c1nc2c(c(=O)[nH]c(=O)n2C)n1Cc1ccc(F)cc1	i	/	-4	4	8	-0.3	-6.1	7.0	-5	3
COc1ccc(-c2noc(C3CCCN(C(=O)c4ccccc4OC)C3)n2)cc1OC (centres undefined)	i	-13	5	-23	-18	14	-3.2	4.8	9	2
O=C(Nc1ccc(S(=O)(=O)N2CCCC2)cc1)c1c(F)cccc1F	i	19	-13	1	1	-0.5	-1.3	-1.8	-5	3
O=C(NCc1ccc2c(c1)OCO2)c1cccc(N2CCCC2=O)c1	/	-3	7	/	/	/	/	4.5	3	2
COC(=O)CCC(=O)N(CCN(Cc1ccccc1)C(=O)CCC(=O)OC)Cc1ccccc1	i	-2	2	-16*	1.7*	-0.1*	-1.1	0.8	-1	1
CCN1C(=O)CC(N2CCC(Cc3ccccc3)CC2)C1=O (centres undefined)	/	0	-6	/	/	/	/	2.7	?	-1
COc1cccc(CC(=O)NCC2(N3CCCCC3)CCCCC2)c1	i	-18	4	21	12	4.9	3.2	?	-7	-9
COc1ccc(OC)c(-c2nnc3n2N=C(c2ccc(OC)c(OC4CCCC4)c2)CS3)c1	i	-2	/	-26	-11	-15	9.4	/	/	10
CCOC(=O)C1=NNC(C(=O)c2ccc(C)cc2)C1c1ccc(OC)cc1 (centres undefined)	/	/	14	/	/	/	/	-2.3	-8	1
C=CCn1c(SCc2ccc(C(=O)NCCO)cc2)nc2sc(C)c(C)c2c1=O	i	/	24	8	-7	2.6	-0.4	-5.4	-14	-4

High-throughput results from PubChem.

Not all compounds are listed; the hit share may differ from the screen's.
